PINK1 modulator: modulators of PINK1 expression | PINK1 immunofluorescence, high-content cytometry, 24 h | Potency, µM (titrated, usually from 76.6 µM), for the others: at the highest dose activation (PINK1 increase), actives largely listed as activators | 0.2% of 410,000 active | AID 624263; active = well fitted activation curve with a large enough effect; inconclusive = small, poorly fitted or top-dose-only effect; inactive = flat fitted curve, though single readings scatter; cell line not stated here;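 note: potency is the fitted concentration of half-maximal effect; % of control where 0% means no effect; nearly all actives have a fitted effect of over 65% in size; a mitochondrial uncoupler was the plate control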
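Decision-based qHTS: stable cells, 24 h exposure to five compound concentrations, CCCP as control. Fixed cells stained for PINK1 plus nuclear, mitochondrial and cell markers, cytometer read.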
Six1-Eya2 blk: inhibitors of human Six1/Eya2 interaction; Q15475+O00167; AlphaScreen GST-Six1/His-Eya2 binding, biochemical; hits give low values; control for the full effect not named in the record; activity change, % (concentration not given with the values); 0.56% of 360,000 active; AID 651725; in the data active = activity change below about -65%; inconclusive = about -30% to -65%; inactive = above about -30%; note: % is set by controls: 0 for no effect and ±100 for the full control effect
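Homogeneous AlphaScreen proximity assay pairing GST-Six1 with His-tagged Eya2 (added as 5X mix: 250 nM and 500 nM) in 50 mM Tris pH 8.0, 300 mM NaCl, 1 mM TCEP. Glutathione donor and nickel acceptor beads; 1 h, 37 °C, dark.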
TRPML1 inh: human mucolipin-1 channel inhibition. Q9GZU1. TRPML1-inducible cells, Ca2+ dye fluorescence, FDSS; hits give low values; inhibition of EC80 agonist-evoked calcium signal. activity change, negative = inhibition, % (concentration not given with the values). 0.02% of 390,000 active. AID 624415; in the data active means activity change below about -50%; inconclusive means about -30% to -50%; inactive means above about -30%;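 note: stimulus is agonist 54-4 at its EC80 concentration; % is set by controls: 0 for no effect and ±100 for the full control effect; compound concentration not given in the record; the text of the record puts the active cut at -80%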
Target sequence (Q9GZU1 whole entry, looked up): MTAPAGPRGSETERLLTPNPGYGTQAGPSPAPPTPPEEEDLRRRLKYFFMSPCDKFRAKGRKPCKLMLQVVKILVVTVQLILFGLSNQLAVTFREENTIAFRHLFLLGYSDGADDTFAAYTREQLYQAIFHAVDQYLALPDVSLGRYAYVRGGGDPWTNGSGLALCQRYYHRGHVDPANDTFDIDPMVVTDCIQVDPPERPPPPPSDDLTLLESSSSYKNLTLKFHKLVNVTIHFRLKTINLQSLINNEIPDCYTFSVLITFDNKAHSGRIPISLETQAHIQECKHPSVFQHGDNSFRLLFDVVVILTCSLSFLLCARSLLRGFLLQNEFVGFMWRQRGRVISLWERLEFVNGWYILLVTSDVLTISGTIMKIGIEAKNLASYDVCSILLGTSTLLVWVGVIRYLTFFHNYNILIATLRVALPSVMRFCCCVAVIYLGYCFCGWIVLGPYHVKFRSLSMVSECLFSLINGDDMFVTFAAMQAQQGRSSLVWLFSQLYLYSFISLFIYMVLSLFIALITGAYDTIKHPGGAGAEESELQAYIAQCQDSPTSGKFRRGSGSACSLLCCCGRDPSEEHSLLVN
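TRPML1-DL cells, Tet-induced overnight (~16 h, 37 °C) at 1,500 cells/well, were loaded with Ca8 no-wash dye plus quencher for 45-90 min at room temperature. Compounds were pinned during FDSS kinetic reading; agonist 54-4 at EC80 (4 uM final) then added.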
D2 agonist: human D2 receptor agonism in beta-arrestin assay; P14416; DiscoveRx PathHunter D2 beta-arrestin, luminescence, 90 min; 100% = 57 uM dopamine signal; activation, % (no concentration beside the values); 0.084% of 360,000 active; in the data active = activation above about 40%; inconclusive = about 15% to 40%; inactive = below about 15%; note: compound concentration not given in the record; the text of the record calls up to 30% inactive
Target sequence (P14416 whole entry, looked up): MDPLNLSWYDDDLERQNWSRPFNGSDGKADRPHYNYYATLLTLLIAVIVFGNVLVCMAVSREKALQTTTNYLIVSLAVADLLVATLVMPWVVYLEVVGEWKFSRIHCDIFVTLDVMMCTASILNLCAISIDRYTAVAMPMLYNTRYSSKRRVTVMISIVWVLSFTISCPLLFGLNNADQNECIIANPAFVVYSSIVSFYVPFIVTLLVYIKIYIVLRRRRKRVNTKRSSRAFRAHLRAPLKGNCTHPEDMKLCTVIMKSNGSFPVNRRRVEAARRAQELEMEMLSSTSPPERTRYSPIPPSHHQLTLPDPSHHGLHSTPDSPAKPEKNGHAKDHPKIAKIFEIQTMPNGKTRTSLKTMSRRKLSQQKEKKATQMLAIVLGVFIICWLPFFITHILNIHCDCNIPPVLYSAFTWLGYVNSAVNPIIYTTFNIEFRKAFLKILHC
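Agonist mode: compounds alone added to overnight-plated D2 PathHunter cells for 90 min at 37 C, with 57 uM final dopamine (EC100) defining full response. Beta-arrestin recruitment detected by chemiluminescent reagent, read after 1 h at ambient temperature.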
CtBP-E1A blk: CtBP/E1A binding inhibition; AlphaScreen GST-E1A/His-CtBP binding, 1536-well; hits give low values; control for the full effect not named in the record; activity change, % (concentration not given with the values); 0.49% of 340,000 active; in the data active means activity change below about -65%; inconclusive means about -30% to -65%; inactive means above about -30%; note: % is set by controls: 0 for no effect and ±100 for the full control effect
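In 5 uL wells, 23 nL compound meets equimolar GST-E1A and His-CtBP (5X stock 125 nM each) for 2 h, 37 °C. Beads (5X, 50 ug/mL) then 1 h, 37 °C, dark.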
TRPML1 agonist: agonists of human TRPML1 channel | Q9GZU1 | TRPML1-expressing cells, Ca2+ dye fluorescence, FDSS; host cell line not named in the record; reference of the full effect not given here | activation, % (test concentration not listed) | 0.12% of 410,000 active; in the data active = activation above about 50%; inconclusive = about 30% to 50%; inactive = below about 30%; note: 0% is about no effect; the text of the record puts the active cut at 80%
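Cells: TRPML1-DL, 1X Tet inducer, ~16 h at 37 degrees C/5% CO2. Dye: ABD Ca8 no-wash + quencher, 45-90 min RT. Read: 10 s baseline, compound add, 110 s agonist phase; 54-4 EC80 (4uM final), 110 s antagonist phase.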
* = called active by the depositor; [ ] = dose if it differs, or a comment.

Results for COc1ccc(N2C(=S)NC3N2C(=S)NC3(C)c2ccccc2)cc1 (stereo unspecified) ?
PINK1 modulator: 7.0%; Six1-Eya2 blk: 4; TRPML1 inh: -17; D2 agonist: 12; CtBP-E1A blk: -1; TRPML1 agonist: -0.5

Results for O=C(Nc1cccc([N+](=O)[O-])c1)Nc1ccc2c(c1)OCCO2 ?
PINK1 modulator: 1.8%; Six1-Eya2 blk: -4; TRPML1 inh: -4; D2 agonist: -5.6; CtBP-E1A blk: -10; TRPML1 agonist: -0.2

Results for COc1ccc(CCNC(=O)C2CCN(c3ncnc4c3nc3n4CCCCC3)CC2)c(OC)c1 ?
PINK1 modulator: -5.8%; TRPML1 inh: -5; TRPML1 agonist: 1.4

Results for Cc1ccc(CSc2oc(-c3cccs3)nc2S(=O)(=O)c2ccc(C)cc2)cc1 ?
PINK1 modulator: -1.5%; TRPML1 inh: -14; TRPML1 agonist: 0.2

How did COc1ccc(-c2csc3ncnc(N4CCN(S(=O)(=O)c5cccc(Br)c5)CC4)c23)cc1 do in these assays?
PINK1 modulator: 1.8%; Six1-Eya2 blk: 7; TRPML1 inh: -3; D2 agonist: 6.3; CtBP-E1A blk: 2; TRPML1 agonist: 0.4

What do the screens show for `Cc1ccc(S(=O)(=O)Oc2ccccc2-c2ccccc2)cc1`?
PINK1 modulator: 2.8%; Six1-Eya2 blk: 15; TRPML1 inh: -24; D2 agonist: -2.3; CtBP-E1A blk: 44; TRPML1 agonist: 100*

What do the screens show for `N#C/C(=C\c1ccccc1[N+](=O)[O-])C(=O)Nc1ccc(S(N)(=O)=O)cc1`?
PINK1 modulator: -0.9%; Six1-Eya2 blk: -9; TRPML1 inh: 2; D2 agonist: -2.0; TRPML1 agonist: 4.5

How did Cc1ccc(C)c(S(=O)(=O)Nc2ccc(O)cc2)c1 do in these assays?
PINK1 modulator: 3.8%; Six1-Eya2 blk: 10; TRPML1 inh: 1; D2 agonist: 2.6; CtBP-E1A blk: 6; TRPML1 agonist: -0.1

How did O=C1OC(c2ccc(F)cc2)=N/C1=C\C=C/c1ccccc1 do in these assays?
PINK1 modulator: 3.4%; Six1-Eya2 blk: -4; TRPML1 inh: -1; D2 agonist: 0.0; TRPML1 agonist: -0.3

Results for O=C1CCCC2=C1C(c1cccs1)Nc1ccccc1N2 (stereo unspecified) ?
PINK1 modulator: -2.3%; Six1-Eya2 blk: 13; TRPML1 inh: 1; D2 agonist: 0.5; CtBP-E1A blk: 5; TRPML1 agonist: -0.2

What do the screens show for `Cc1nc(N2CCOCC2)[nH]c(=O)c1[N+](=O)[O-]`?
PINK1 modulator: 1.2%; Six1-Eya2 blk: 0; D2 agonist: -8.0; CtBP-E1A blk: -6

What do the screens show for `O=C(COC(=O)c1n[nH]c2ccccc12)Nc1cccc(S(=O)(=O)N2CCOCC2)c1`?
PINK1 modulator: 1.9%; Six1-Eya2 blk: -2; TRPML1 inh: -4; D2 agonist: -0.7; CtBP-E1A blk: -2; TRPML1 agonist: 0.6

Results for Cc1nn(CC(=O)N2CCN(c3ccccc3)CC2)c(=O)c2ccccc12 ?
PINK1 modulator: 0.2%; Six1-Eya2 blk: -1; TRPML1 inh: 18; D2 agonist: -1.4; CtBP-E1A blk: 0; TRPML1 agonist: -0.5

How did COc1cccc2c1c(NC(=O)c1cc(C)on1)nn2C do in these assays?
PINK1 modulator: 0.8%; Six1-Eya2 blk: 11; TRPML1 inh: -8; D2 agonist: -6.4; CtBP-E1A blk: 11; TRPML1 agonist: -0.2

Results for CCOC(=O)c1ccc(/C=C2\c3ccccc3C(=O)N2c2ccccc2)cc1F ?
PINK1 modulator: 2.8%; Six1-Eya2 blk: -15; TRPML1 inh: 14; D2 agonist: 2.3; CtBP-E1A blk: -9; TRPML1 agonist: 1.2

Next part; the last three above are carried over.
Results for Cc1nn(CC(=O)N2CCN(c3ccccc3)CC2)c(=O)c2ccccc12 ?
PINK1 modulator: 0.2%; Six1-Eya2 blk: -1; TRPML1 inh: 18; D2 agonist: -1.4; CtBP-E1A blk: 0; TRPML1 agonist: -0.5

How did COc1cccc2c1c(NC(=O)c1cc(C)on1)nn2C do in these assays?
PINK1 modulator: 0.8%; Six1-Eya2 blk: 11; TRPML1 inh: -8; D2 agonist: -6.4; CtBP-E1A blk: 11; TRPML1 agonist: -0.2

Results for CCOC(=O)c1ccc(/C=C2\c3ccccc3C(=O)N2c2ccccc2)cc1F ?
PINK1 modulator: 2.8%; Six1-Eya2 blk: -15; TRPML1 inh: 14; D2 agonist: 2.3; CtBP-E1A blk: -9; TRPML1 agonist: 1.2

What do the screens show for `Cn1cnnc1SCc1cccc(Br)c1`?
PINK1 modulator: -0.9%; Six1-Eya2 blk: 0; TRPML1 inh: -10; D2 agonist: 2.5; CtBP-E1A blk: -7; TRPML1 agonist: 1.2

What do the screens show for `Cc1nn(Cc2ccccc2Cl)c(C)c1NC(=O)c1noc2c1CCCCC2`?
PINK1 modulator: 9.3%[38.3 µM]; Six1-Eya2 blk: 1; TRPML1 inh: -2; D2 agonist: -0.7; CtBP-E1A blk: -7; TRPML1 agonist: 1.9

Results for C=CCn1c(COc2ccccc2F)nnc1SCC(=O)Nc1cc(C)on1 ?
PINK1 modulator: 2.0%; Six1-Eya2 blk: 0; TRPML1 inh: -3; D2 agonist: -3.2; CtBP-E1A blk: 3; TRPML1 agonist: 1.6

What do the screens show for `Fc1ccc(-c2n[nH]c(=S)n2Cc2ccccc2)cc1`?
PINK1 modulator: -1.7%; Six1-Eya2 blk: -18; TRPML1 inh: -10; D2 agonist: -5.8; CtBP-E1A blk: -4; TRPML1 agonist: -0.6

What do the screens show for `CC(=O)Nc1cc(-c2nc3ccccc3o2)ccc1Cl`?
PINK1 modulator: 1.4%; Six1-Eya2 blk: 14; D2 agonist: -2.5

How did COCCCN(Cc1cccs1)S(=O)(=O)c1c[nH]c(C(=O)OC)c1 do in these assays?
PINK1 modulator: -0.1%; Six1-Eya2 blk: 2; TRPML1 inh: 5; D2 agonist: -2.0; CtBP-E1A blk: 3; TRPML1 agonist: -0.7

What do the screens show for `COc1cc(NS(=O)(=O)c2ccc(NC(=O)c3ccc(OC)c(Br)c3)cc2)nc(OC)n1`?
PINK1 modulator: 1.8%; TRPML1 inh: 38; TRPML1 agonist: 1.0

How did Cc1ccc2ncccc2c1[N+](=O)[O-] do in these assays?
PINK1 modulator: 3.6%; Six1-Eya2 blk: -14; TRPML1 inh: 8; D2 agonist: 3.4; CtBP-E1A blk: -16; TRPML1 agonist: -0.1

How did CCCC(=O)N1CCN(c2nc3ccc(Br)cc3s2)CC1 do in these assays?
PINK1 modulator: -0.2%; Six1-Eya2 blk: 2; TRPML1 inh: -7; D2 agonist: 3.1; TRPML1 agonist: 1.4

How did O=C(CCn1ccc2ccccc21)Nc1ccc(N2CCOCC2)cc1 do in these assays?
PINK1 modulator: -1.2%; Six1-Eya2 blk: -9; TRPML1 inh: 2; D2 agonist: 2.8; CtBP-E1A blk: -19; TRPML1 agonist: 1.1

What do the screens show for `O=C(O)C(CCCCN1C(=O)c2ccccc2C1=O)N1C(=O)c2ccccc2C1=O` (stereo unspecified)?
PINK1 modulator: 3.3%; Six1-Eya2 blk: 0; TRPML1 inh: 25; D2 agonist: -1.1; CtBP-E1A blk: 15; TRPML1 agonist: 0.5

What do the screens show for `CCC(=O)N1c2ccccc2CC1C(=O)NCCc1ccccc1Cl` (stereo unspecified)?
PINK1 modulator: 1.8%; TRPML1 inh: 5; TRPML1 agonist: 0.5

How did CC(NC(=O)CN1C(=O)NC(C)(C2CC2)C1=O)c1ccc(F)cc1 (stereo unspecified) do in these assays?
PINK1 modulator: 10%; Six1-Eya2 blk: 2; TRPML1 inh: -10; D2 agonist: 0.6; CtBP-E1A blk: 1; TRPML1 agonist: -0.4

Results for Cc1cc(C(=O)OCC(=O)NCc2ccc(Cl)cc2Cl)c(C)o1 ?
PINK1 modulator: 4.2%; Six1-Eya2 blk: 0; TRPML1 inh: -13; D2 agonist: 2.7; CtBP-E1A blk: 1; TRPML1 agonist: 1.8

What do the screens show for `Cc1ccc(CN2CCCn3nc(C(=O)NCCc4ccccc4Cl)cc3C2=O)cc1`?
PINK1 modulator: -0.7%; TRPML1 inh: -17; TRPML1 agonist: 0.5

Results for O=C(COc1ccc(Cl)cc1Cl)Nc1ccc(CN2CCCCC2)cc1 ?
PINK1 modulator: 1.0%; Six1-Eya2 blk: -3; TRPML1 inh: -6; D2 agonist: 0.3; CtBP-E1A blk: -4; TRPML1 agonist: 0.8

Results for CN1CCC(N2CCN(C3CN(Cc4ccccc4)S(=O)(=O)C3)CC2)CC1 (stereo unspecified) ?
PINK1 modulator: -0.3%; Six1-Eya2 blk: 3; D2 agonist: 9.7; CtBP-E1A blk: 3; TRPML1 agonist: -0.7

Results for Cn1cccc1Cc1nnc(SCC(=O)NCc2ccco2)n1-c1ccc(F)cc1 ?
PINK1 modulator: 1.3%[38.3 µM]; Six1-Eya2 blk: -13; TRPML1 inh: 30; D2 agonist: -0.6; CtBP-E1A blk: -7; TRPML1 agonist: 0.5

Results for O=C(CSc1ncnc2c1oc1ccccc12)N1CCCc2ccccc21 ?
Six1-Eya2 blk: 1; TRPML1 inh: 10; D2 agonist: 0.5; CtBP-E1A blk: -4; TRPML1 agonist: 0.5

Results for COc1ccccc1OC(C)C(=O)Nc1ccc2c(c1)n(C)c(=O)n2C (stereo unspecified) ?
PINK1 modulator: 4.1%; Six1-Eya2 blk: -6; TRPML1 inh: 7; D2 agonist: -1.2; CtBP-E1A blk: -4; TRPML1 agonist: 0.1

Results for O=C1[C@H]2[C@@H](c3ccc(Cl)cc3)N3C(=O)N(c4cccc(Cl)c4)C(=O)[C@@]3(Cc3ccccc3)[C@H]2C(=O)N1C1CCCCC1 ?
PINK1 modulator: 0.0%; Six1-Eya2 blk: -3; TRPML1 inh: 33; D2 agonist: -1.5; TRPML1 agonist: 0.0

What do the screens show for `O=C1CC(c2ccccc2)n2nc(N3C(=O)CCC3=O)nc2N1` (stereo unspecified)?
PINK1 modulator: -1.5%; Six1-Eya2 blk: 6; TRPML1 inh: -8; D2 agonist: -1.0; CtBP-E1A blk: 5; TRPML1 agonist: 1.3

How did CCOc1ccc(-c2noc(CCC(=O)O)n2)cc1 do in these assays?
PINK1 modulator: 0.6%; Six1-Eya2 blk: 11; TRPML1 inh: -8; D2 agonist: 0.3; CtBP-E1A blk: 0; TRPML1 agonist: 0.4

What do the screens show for `CC(C)CCn1nnnc1CN1CCN(c2ccccc2)CC1`?
PINK1 modulator: 2.3%; Six1-Eya2 blk: 0; TRPML1 inh: 0; D2 agonist: 4.1; CtBP-E1A blk: 4; TRPML1 agonist: -0.2

What do the screens show for `N#Cc1nc(/C=C/c2ccc(F)cc2)oc1N1CCN(c2ccccc2)CC1`?
PINK1 modulator: 5.7%; TRPML1 inh: -1; TRPML1 agonist: -0.9

Results for Cc1ccc(O)c(NC(=O)c2onc(C)c2Cl)c1 ?
PINK1 modulator: 0.4%; Six1-Eya2 blk: 2; TRPML1 inh: -22; D2 agonist: -4.0; TRPML1 agonist: 1.4
